UUG fidelity = yeast start codon fidelity modulation. S. cerevisiae UUG-firefly luciferase reporter, luminescence/redox ratio. activity score, % at 18.7 µM. 0.13% of 350,000 active;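 active = replicate mean at a twofold rise or more, about +100% in these data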;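 also: firefly luciferase made from a UUG start codon reports start codon fidelity; reporter light over untreated wells divided by growth signal over untreated wells; some hits fall short of that in this replicate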
Rce1 inh = inhibitors of yeast Ras-converting enzyme. Q03530. yeast membranes, quenched prenylated peptide cleavage fluorescence. calls only. 0.27% of 290,000 active. AID 2563;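 active = fall in fluorescence gain of 50% or more versus controls, with final raw signal at or below 3038400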;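 also: plate controls were neutral control wells for no effect and wells lacking membranes for full effect; tested at 10 µM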
Target sequence (Q03530 whole entry, looked up): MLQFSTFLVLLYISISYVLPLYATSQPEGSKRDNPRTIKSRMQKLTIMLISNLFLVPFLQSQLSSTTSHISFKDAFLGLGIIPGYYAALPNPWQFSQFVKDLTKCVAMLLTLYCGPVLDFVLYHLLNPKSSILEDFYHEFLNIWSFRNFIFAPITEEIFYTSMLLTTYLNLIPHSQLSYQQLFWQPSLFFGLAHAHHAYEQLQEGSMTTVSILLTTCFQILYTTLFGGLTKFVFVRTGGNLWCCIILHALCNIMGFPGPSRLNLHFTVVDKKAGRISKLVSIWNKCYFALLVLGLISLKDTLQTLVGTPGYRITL
CSC inhib = blocks cancer stem cells | cancer stem cell-like cells viability, luminescence | inhibition, % at 7.5 µM | 1.1% of 300,000 active | AID 2717;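 active = mean at 75% or more and at least half the replicates too; tested in HMLE shEcad cells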;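 also: 0% = median of negative and 100% = median of positive control wells; the first replicate is given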
Env fusion inh = inhibitors of HIV Env-mediated cell fusion. inhibition, % at 12.3 µM. AID 651610. HeLa-JRFL Env/CEM21 cell fusion, luciferase. 1.1% of 360,000 active;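 active = mean replicate inhibition score of at least 50 and every replicate individually at or above 50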;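 also: 0% = plate neutral controls and 100% = maraviroc near 300 nM; one replicate is shown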
PABP FP inh = blocks human PABP binding to poly(A) RNA; P11940; fluorescence polarization; inhibition, % at 35 µM; 1% of 290,000 active; AID 2014;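 active = 50% or more with normal probe brightness, or confirmed in later tests; about a fifth of its hits are not listed in these tables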;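 also: calls also rest on retests at 20 µM and on dose response follow-up; controls were probe without protein and protein plus probe with vehicle; some compounds called inactive have numbers as strong as hits; many hits fall short of the cut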
MT1-MMP act inh = MT1-MMP (human) activation inhibition. GFP/RFP ratio change, % at 20 µM. HT1080 RFP-PRO-GFP cells, GFP/RFP ratio fluorescence, overnight; percent of plate control window, DMSO zero. 0.061% of 360,000 active. P50281;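 active = GFP/RFP ratio change of at least 30% with cell ATP level not reduced by more than half and red fluorescence within 50% of control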; also: strong numbers were not always called active
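Assay system: RFP-PRO-GFP reporter HT1080 cells; read-out basis: GFP/RFP fluorescence ratio; benchmarks: DMSO wells and RFP-L50D-GFP cells; doses: 20 µM single dose, 1% DMSO; schedule: overnight cell settling, then overnight compound exposure, 37 °C, 5% CO2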
eIF4H FP inh = inhibitors of RNA binding by human eIF4H; 0.94% of 290,000 active; inhibition, % at 35 µM; eIF4H fluorescence polarization binding assay; AID 2012;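 active = 50% or more with normal probe brightness, or confirmed in later tests; about a fifth of its hits are not listed in these tables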;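 also: calls also rest on retests at 20 µM and on dose response follow-up; 0% = protein and probe with vehicle and 100% = probe without protein; strong numbers were not always called active; many hits fall short of the cut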
MT1-MMP act inh RFP = recorded beside MT1-MMP act inh, whose call it bears; RFP signal change, %; measured here: RFP expression control read;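 0 = vehicle wells; hits needed this value within 50% of zero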
Active calls of the source: *; i = inactive; · = not tested or not shown; [ ] = remark or other dose.

1	CCOC(=O)c1cc2occc2n1CC(=O)NC1CCC(C)CC1 (centres undefined)
2	COC(=O)C1=C(C(=O)OC)[C@@H]2Nc3ccccc3[C@@]23C[C@@H](C(=O)OC)N(C(=O)C2CCC2)C3=N1
3	CCn1c(SCC(=O)NNC(=O)c2ccc(C)cc2)nnc1-c1ccco1
4	Cn1c(SCc2ccccc2)nc(N)c(N=O)c1=O
5	S=C(NCCc1ccncc1)Nc1cccc2ccccc12
6	CN(C)S(=O)(=O)c1cccc(NC(=O)C(c2ccccc2)c2ccccc2)c1
7	C[C@H](CO)N1C[C@H](C)[C@@H](CN(C)Cc2cccnc2)Oc2ncc(-c3cccc(C#N)c3)cc2C1=O
8	CC(C)Cn1nc(C(=O)NCc2ccccc2CN2CCCC2)c2ccccc2c1=O

compound no.	1	2	3	4	5	6	7	8
UUG fidelity	-3.4	-2.5	·	-1.6	·	-2.8	-4.8	-2.1
Rce1 inh	i	i	i	i	i	i	·	·
CSC inhib	-4.5	-3.0	-1.6	14.8	2.1	-7.7	·	16.5
Env fusion inh	·	-33.4	-3.8	-27.3	19.9	29.4	14.5[16.7 µM]	5.3
PABP FP inh	1.3	·	-10.2	·	-6.7	-3.4	·	·
MT1-MMP act inh	-3.4	-2.1	-1.1	5.0	3.0	-0.8	-3.3	2.4
MT1-MMP act inh RFP	-3.7	5.8	1.3	-8.9	1.0	-2.0	2.5	4.8
eIF4H FP inh	3.1	·	-9.0	·	-7.0	-9.2	·	·

9	Cc1ccccc1NC(=O)C1CCCN1/C=C/C(=O)C(F)(F)F (centres undefined)
10	CC(C)(C)C(C(Oc1ccc(Cl)cc1)n1cncn1)n1nnnc1C(c1cccc(Cl)c1)N1CCCCC1 (centres undefined)
11	O=C(Oc1oc(-c2ccco2)nc1C=Nc1ccc(Cl)cc1)c1ccco1
12	NC(=O)c1ccccc1NC(=O)CC1(CC(=O)O)CCCC1
13	COc1cccc(N2CCN(C(=O)c3cccc(S(=O)(=O)N4CCCC4)c3)CC2)c1
14	Cc1cc(NC(=O)c2cccc3ccccc23)cc(C)c1OCC(=O)N1CCOCC1
15	COCCOC(=O)c1c(C)n(C)c2ccc(OC(=O)c3ccccc3F)cc12
16	COC(=O)c1cc(S(=O)(=O)N2CCCCC2C)c[nH]1 (centres undefined)

compound no.	9	10	11	12	13	14	15	16
UUG fidelity	-12.2	·	0.5	-1.9	-12.7	·	-18.9	-23.6
Rce1 inh	i	i	i	·	·	i	i	i
CSC inhib	-4.2	44.8	4.8	-7.7	·	1.3	-13.1	-9.7
Env fusion inh	6.6	·	·	2.1	1.7	·	-13.7	-1.4
PABP FP inh	17.5	-4.6	-3.5	-5.3	·	4.8	1.1	8.5
MT1-MMP act inh	0.0	·	-0.6	-1.7	-7.3	0.2	2.3	-2.2
MT1-MMP act inh RFP	2.1	·	0.2	1.2	1.0	3.6	0.4	1.3
eIF4H FP inh	2.9	-0.1	-0.6	-8.0	·	3.1	1.4	12.3

17	Cc1nnc2sc(COc3ccccc3)nn2c1=O
18	CCN(CCO)Cc1cc(=O)oc2c(C)c(C)ccc12
19	CCOC(=O)C1=C(CN2c3ccccc3CC2C)NC(=O)NC1c1ccccc1 (centres undefined)
20	CCc1ccc(NC(=O)CC2C(=O)Nc3c2c(=O)n(C)c(=O)n3C)cc1 (centres undefined)
21	COc1ccc(NC(=O)NC2CCCCCCC2)c(OC)c1
22	CCN(CC)S(=O)(=O)c1ccc2c(c1)N(CC(=O)Nc1ccc(NC(C)=O)cc1)C(=O)CO2
23	COC(=O)c1cn(NC(=O)c2ccccc2[N+](=O)[O-])c(=O)c2ccccc12
24	COc1cc(S(=O)(=O)N2CCOCC2)ccc1F

compound no.	17	18	19	20	21	22	23	24
UUG fidelity	-3.8	-7.2	1.0	2.2	-22.8	-9.2	-16.6	196.1*
Rce1 inh	i	i	i	i	i	i	i	i
CSC inhib	-2.0	-13.6	-12.3	-16.2	15.1	-4.6	·	-14.1
Env fusion inh	2.4	-1.9	-47.5	11.7	·	-5.4	3.7	·
PABP FP inh	-6.2	-10.3	-2.3	-2.5	-6.9	3.4	-10.5	-16.2
MT1-MMP act inh	-2.9	0.2	2.9	-2.2	-4.7	-4.5	-3.4	-2.9
MT1-MMP act inh RFP	-0.1	0.4	-0.8	-0.3	-3.8	4.2	-0.3	7.4
eIF4H FP inh	12.8	-10.2	1.0	-4.6	0.9	-7.8	-6.0	-4.8

25	CCOc1ccccc1CNc1ncnc2ccc(-c3c(C)noc3C)cc12
26	NC(=O)CCCn1c(C(=O)c2ccc(Cl)cc2)c2ccc([N+](=O)[O-])cc2[n+]1[O-]
27	CC(=O)Nc1cccc(NC(=S)Nc2ccc(F)cc2F)c1
28	COc1ccc(NC(=O)CN2C(=O)NC(C)(c3ccccc3)C2=O)c(OC)c1 (centres undefined)
29	COC(=O)c1ccc(-n2c(C)cc(/C=N/n3cnnc3)c2C)cc1
30	O=C1CSC2=NCN(c3ccc4c(c3)OCO4)CN12
31	Cc1cccc(OCC(=O)NC(=S)Nc2ccccc2N2CCOCC2)c1C
32	CCOC(=O)c1sc(N)c(C(=O)Nc2ccccc2)c1C

compound no.	25	26	27	28	29	30	31	32
UUG fidelity	-13.2	-19.8	·	2.0	-9.5	-14.4	-14.3	-11.9
Rce1 inh	·	i	i	i	i	i	i	i
CSC inhib	112.2*	3.6	-4.7	-11.6	-1.5	4.8	20.8	1.9
Env fusion inh	69.9*	-22.5	6.1	-1.3	·	-49.9	42.6	-21.1
PABP FP inh	·	·	4.1	6.9	7.1	-5.5	7.1	7.2
MT1-MMP act inh	0.0	-1.1	0.9	2.4	-7.7	6.2	-2.3	4.9
MT1-MMP act inh RFP	-23.5	-3.3	-0.1	1.3	-1.6	6.6	-2.1	6.5
eIF4H FP inh	·	·	2.1	-17.0	7.1	-3.3	1.5	1.6

33	O=[N+]([O-])c1ccc(-c2nc3ccc([N+](=O)[O-])cc3[nH]2)cc1
34	Nn1c(SCC(=O)NC2CCCCC2)nnc1-c1ccco1
35	COc1ccc(OCc2nn3c(-c4cccc(OC)c4)nnc3s2)cc1
36	O=C(c1cccnc1)N1N=C(c2cccs2)CC1c1ccc(F)cc1 (centres undefined)
37	N#CC1=C(N)Oc2cc(N)ccc2C1c1ccccc1 (centres undefined)
38	O=C(CNC(=O)c1ccc(N2C(=O)c3ccccc3C2=O)cc1)OCC(=O)c1cccc2ccccc12
39	COc1cc(OC)cc(C(=O)N/N=C\c2ccoc2)c1
40	Cc1ccc(N(CC(=O)N/N=C/c2ccc(OC3CSC3)cc2)S(=O)(=O)c2ccccc2)c(C)c1

compound no.	33	34	35	36	37	38	39	40
UUG fidelity	4.5	-11.4	-26.7	·	0.6	-10.8	7.8	·
Rce1 inh	i	·	i	i	·	i	i	i
CSC inhib	24.9	-6.7	-13.6	·	·	14.8	-10.8	-15.5
Env fusion inh	·	·	·	0.3	-9.1	-8.5	-10.0	·
PABP FP inh	1.0	·	1.7	-4.8	·	9.8	3.6	15.6
MT1-MMP act inh	2.0	-5.2	8.5	-2.8	-0.5	2.3	-0.6	-1.2
MT1-MMP act inh RFP	-13.3	-0.1	2.7	0.7	-3.2	5.2	5.0	-2.0
eIF4H FP inh	11.6	·	4.3	2.7	·	-4.9	0.1	3.2

41	Cc1nnc(NC(=O)CSc2nnc(CC(=O)Nc3ccccc3C)n2C)s1
42	Cc1cc(=O)[nH]c2c(C)c(Cl)ccc12
43	CCOc1ccc(Br)cc1S(=O)(=O)N1CCC(C(=O)O)CC1
44	FC(F)(F)c1cc(N2CCN(Cc3ccccc3)CC2)c2ccccc2n1
45	CCCN(CCC)C(=O)CSc1nc2ccccc2c(=O)n1C1CCCC1
46	O=C(NCC1CCCO1)c1ccc2c(=O)n(-c3ccccc3)c(=S)[nH]c2c1 (centres undefined)
47	COc1cc(CN2CCN(CCOCCO)CC2)cc(OC)c1OC
48	Cc1cccc(NC(=O)NCC2CC2)c1

compound no.	41	42	43	44	45	46	47	48
UUG fidelity	-19.7	·	·	·	-7.5	-11.6	-11.9	-15.5
Rce1 inh	·	i	i	i	i	i	i	i
CSC inhib	-19.0	-5.3	1.5	40.9	18.6	-12.2	-3.1	-10.1
Env fusion inh	3.8	·	-9.0	20.0	65.2*	23.0	-28.1	-15.8
PABP FP inh	-0.8	-0.2	-2.2	-0.2	3.9	-7.1	-1.7	7.7
MT1-MMP act inh	2.8	·	-1.4	4.1	-2.3	1.5	0.7	7.5
MT1-MMP act inh RFP	4.0	·	1.0	-1.6	-10.4	-4.6	3.8	10.0
eIF4H FP inh	-3.8	-7.2	-7.6	-4.8	1.0	1.4	-3.0	-3.7

49	COc1cccc(C(=O)Nc2cc(NC(=O)c3cccs3)ccc2C)c1OC
50	COCCn1c(=NC(=O)/C=C/c2ccccc2Cl)sc2cc(NC(C)=O)ccc21
51	O=S(=O)(NCc1cccnc1)c1cccn1-c1ncc(C(F)(F)F)cc1Cl
52	COc1cc(NC(=O)CCn2c(=S)oc3ccccc32)cc(OC)c1OC
53	Cc1cc2oc(C(=O)Nc3ccc(S(=O)(=O)N4CCCC(C)C4)cc3)cc(=O)c2cc1Cl (centres undefined)
54	O=C(OCC(=O)N1CCCC1)c1ccccc1C(=O)c1ccccc1
55	O=C1C(C=Nc2ccc(F)cc2)=C(O)c2ccccc21
56	Cc1c(C(=O)NC(C)c2ccncc2)oc2ccccc12 (centres undefined)

compound no.	49	50	51	52	53	54	55	56
UUG fidelity	-0.7	·	·	-19.6	-2.4	2.9	-15.9	-1.6
Rce1 inh	i	i	i	i	i	·	·	i
CSC inhib	3.4	3.8	-5.2	-10.2	0.7	-10.1	-0.7	0.2
Env fusion inh	11.4	13.3	41.8	8.9	-5.5	·	-122.9	·
PABP FP inh	6.0	16.8	-1.2	-5.7	5.3	·	2.0	-8.5
MT1-MMP act inh	5.8	2.6	-4.7	15.6	-1.3	-3.1	1.6	5.1
MT1-MMP act inh RFP	-2.1	1.8	-18.1	-7.9	-1.8	-1.7	-0.1	2.0
eIF4H FP inh	-0.5	1.6	11.0	-3.2	3.4	·	8.7	1.8

Given as labelled records: part of the list above
50: COCCn1c(=NC(=O)/C=C/c2ccccc2Cl)sc2cc(NC(C)=O)ccc21
  UUG fidelity: ·
  Rce1 inh: i
  CSC inhib: 3.8
  Env fusion inh: 13.3
  PABP FP inh: 16.8
  MT1-MMP act inh: 2.6
  MT1-MMP act inh RFP: 1.8
  eIF4H FP inh: 1.6

56: Cc1c(C(=O)NC(C)c2ccncc2)oc2ccccc12 (centres undefined)
  UUG fidelity: -1.6
  Rce1 inh: i
  CSC inhib: 0.2
  Env fusion inh: ·
  PABP FP inh: -8.5
  MT1-MMP act inh: 5.1
  MT1-MMP act inh RFP: 2.0
  eIF4H FP inh: 1.8

53: Cc1cc2oc(C(=O)Nc3ccc(S(=O)(=O)N4CCCC(C)C4)cc3)cc(=O)c2cc1Cl (centres undefined)
  UUG fidelity: -2.4
  Rce1 inh: i
  CSC inhib: 0.7
  Env fusion inh: -5.5
  PABP FP inh: 5.3
  MT1-MMP act inh: -1.3
  MT1-MMP act inh RFP: -1.8
  eIF4H FP inh: 3.4

Next compounds.
57	O=C(Nc1nc(-c2ccc(Oc3ccccc3)cc2)cs1)C1=COCCO1
58	O=C(c1cc(-c2ccco2)nc2ccccc12)N1CCN(Cc2ccccc2)CC1
59	COc1ccc(C2C3=C(CC(C)(C)CC3=O)OC(N)=C2[N+](=O)[O-])cc1 (centres undefined)
60	COc1ccccc1NCC(=O)N/N=C/c1cccnc1
61	O=C1CCCCCCCN1Cc1ccccc1
62	COc1ccc(NS(=O)(=O)c2ccc3c(c2)NC(=O)CC(=O)N3)cc1OC

compound no.	57	58	59	60	61	62
UUG fidelity	-2.3	-6.8	·	·	·	-13.4
Rce1 inh	i	·	i	i	i	i
CSC inhib	15.2	·	·	-8.2	-5.4	-16.3
Env fusion inh	48.1	0.0	14.4	-46.4	13.9	-5.3
PABP FP inh	-4.4	·	-0.5	1.9	·	5.9
MT1-MMP act inh	-1.7	-7.3	-0.9	1.3	-1.5	-0.6
MT1-MMP act inh RFP	-16.2	0.3	0.5	3.2	2.1	6.2
eIF4H FP inh	-5.9	·	10.7	16.7	·	-0.6

Assay outcomes: PubChem, several laboratories
